# USP2a inhib = blocks human ubiquitin-specific protease USP2a | Potency, µM (highest dose often 38.3 µM), inactives show top-dose activity change, negative = inhibition, actives largely listed as inhibitors | USP2a enzymatic assay, qHTS inhibition | 60,000 compounds, 0.1% hits;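 also: potency is read from the fitted curve at half-maximal effect; nearly all actives have a fitted effect of over 60% in size; plate controls were DMSO for no effect and NEM full inhibition control for full effect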
#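 Coupled readout: USP2-cleaved Ub-PLA2 (20nM final) turns over NBD C6-HPC (20uM final), Ex 460nm/Em 535nm after 2.5 h, time-zero read flagging artifacts. Enzyme (20nM final, pH 8.0 Tris) given 30 min RT with compound first; NEM defines full inhibition.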
# BRCT inh red = inhibitors of human BRCA1 BRCT-phosphoprotein interaction (red fluorophore); BRCT-phosphopeptide binding, red fluorescence polarization; Potency, µM (doses to about 76.9 µM), for the others: at the top dose activity change, negative = inhibition, most hits filed as inhibitors; 75,000 compounds, 0.03% hits; also: % is scaled to controls: 0 for no effect and ±100 for the full control effect
#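 Fluorescence polarization: 100 nM His-tagged BRCA1 BRCT with 100 nM TAMRA-labelled phospho-BACH1 decapeptide, phosphate buffer pH 7.3 with 150 mM NaCl, DTT, 0.01% Tween 20; 12 min RT. Binding inhibition seen as FP decrease.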
# BRCT PPI green = BRCA1 BRCT-phosphoprotein interaction inhibition. P38398. BRCA1 BRCT-phosphopeptide binding, green fluorescence polarization. Potency, µM (doses to about 76.9 µM), inactives show at the top dose activity change, negative = inhibition, actives largely listed as inhibitors. 75,000 compounds, 0.05% hits;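 also: potency is read from the fitted curve at half-maximal effect; plate controls were peptide without protein for full effect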
#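 Fluorescence polarization: His-tagged BRCT (~35 kDa BRCA1 C-terminus, 250 nM) bound to 100 nM fluorescein-labeled phosphorylated 10-aa BACH1 peptide, pH 7.3 phosphate buffer with DTT and Tween 20. Compounds incubated 12 min at room temperature; inhibition read as lowered polarization.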
# 15-hLO inh = inhibitors of human 15-lipoxygenase (ALOX15) | 74,000 compounds, 1.4% hits | Potency, µM (highest dose often 57.1 µM), for inactives: top-dose activity change, negative = inhibition, most hits filed as inhibitors | purified 15hLO-1, xylenol orange hydroperoxide absorbance | P16050; also: potency is read from the fitted curve at half-maximal effect; % is scaled to controls: 0 for no effect and ±100 for the full control effect; nearly all actives have a fitted effect of over 55% in size
#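 Quantitative HTS in 25 mM Hepes pH 7.5 containing 0.01% Triton X-100: human 15hLO-1 at 40 nM, arachidonic acid at 50 uM, 6 min turnover. Product quantified via ferrous oxidation/xylenol orange, 573:405 nm absorbance ratio.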
# HEK293 cAMP cs = raises cAMP in parental HEK293 cells, TSHR agonist counter-screen | 73,000 compounds, 2.5% hits | Potency, µM (titrated, usually from 57.1 µM), without a hit: top-dose activation, actives largely listed as activators | parental HEK293 CNG cAMP sensor, membrane potential fluorescence | AID 938; also: potency is read from the fitted curve at half-maximal effect; % of control where 0% means no effect; nearly all actives have a fitted effect of over 55% in size
#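 Parental HEK 293 cells stably expressing a modified CNG channel (no TSHR) report cAMP rise as membrane depolarization. Membrane potential dye with 100 uM RO 20-1724 was loaded for 60 min at room temperature, then compound added for 30 min; fluorescence read at 590 nm.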
# Tau filament bind = tau filament binding; Potency, µM (titrated, usually from 57.1 µM), without a hit: at the highest dose activity change, negative = inhibition; recombinant tau filaments, thioflavin S fluorescence, 15 h; filaments grown with octadecylsulfate alongside compound; P10636; 71,000 compounds, 2% hits;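 also: potency is read from the fitted curve at half-maximal effect; % is scaled to controls: 0 for no effect and ±100 for the full control effect; actives lower thioflavin S fluorescence by blocking filaments or displacing dye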
# Target sequence (P10636 whole entry, looked up): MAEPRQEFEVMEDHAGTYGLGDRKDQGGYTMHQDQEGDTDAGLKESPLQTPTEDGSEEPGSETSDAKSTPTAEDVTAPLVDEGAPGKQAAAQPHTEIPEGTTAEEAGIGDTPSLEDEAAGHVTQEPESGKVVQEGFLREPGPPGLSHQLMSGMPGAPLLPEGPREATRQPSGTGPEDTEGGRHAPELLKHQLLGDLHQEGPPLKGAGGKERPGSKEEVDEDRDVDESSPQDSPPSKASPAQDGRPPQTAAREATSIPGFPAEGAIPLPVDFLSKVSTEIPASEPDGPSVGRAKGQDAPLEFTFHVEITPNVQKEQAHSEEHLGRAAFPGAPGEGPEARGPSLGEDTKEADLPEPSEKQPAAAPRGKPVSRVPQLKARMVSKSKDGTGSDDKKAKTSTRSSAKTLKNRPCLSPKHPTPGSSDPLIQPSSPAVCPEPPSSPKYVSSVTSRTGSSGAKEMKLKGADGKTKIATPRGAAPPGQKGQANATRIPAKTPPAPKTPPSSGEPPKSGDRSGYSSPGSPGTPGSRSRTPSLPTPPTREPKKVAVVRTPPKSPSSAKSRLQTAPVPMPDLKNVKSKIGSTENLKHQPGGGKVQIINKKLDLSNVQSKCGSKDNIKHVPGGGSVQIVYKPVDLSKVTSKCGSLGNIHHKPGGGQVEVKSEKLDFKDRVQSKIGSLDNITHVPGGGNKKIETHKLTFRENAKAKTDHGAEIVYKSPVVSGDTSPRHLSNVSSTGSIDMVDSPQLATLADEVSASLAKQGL
#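 Assay mix: 1 uM His-tagged tau, 30 uM sodium octadecylsulfate, thioflavine S dye in HEPES/NaCl/DTT buffer. Compound is added prior to the inducer. Fluorescence after 15 h at 37 C.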
# Rhodamine autofl = compound autofluorescence in rhodamine spectral region | Rhodamine-region fluorescence, 547/598 nm, Tris buffer; stronger effect = higher value | max dye-equivalent concentration, M | 59,000 compounds, 0.05% hits | AID 594; in the data active = max dye-equivalent concentration above about 11 nM; inconclusive = between about 1.1 nM and that limit
#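 A six-point rhodamine series on each plate calibrates the signal. Compounds sit in 100 mM Tris (pH 8.0) for 15 min at ambient temperature before imaging through 547 nm/598 nm filters.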
# DNA Pol III inh = DNA polymerase III holoenzyme inhibition; reconstituted DNA polymerase III holoenzyme replication, biochemical; Potency, µM (series often up to 57.1 µM), without a hit: at the top dose activity change, negative = inhibition; 71,000 compounds, 0.25% hits; AID 603; also: potency is read from the fitted curve at half-maximal effect; % is scaled to controls: 0 for no effect and ±100 for the full control effect
#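 Reconstituted *E. coli* holoenzyme (0.35 nM Pol III, 1 nM beta, 154 nM SSB, 2 nM primase) was preincubated with compound for 15 min at RT. Synthesis on 1.4 nM ssM13Gori ran 35 min, then was stopped with PicoGreen/EDTA and read as dsDNA fluorescence.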
# HADH2 inhib = inhibitors of human HADH2 dehydrogenase | recombinant HADH2, NADH fluorescence, beta-hydroxybutyryl-CoA | Q99714 | Potency, µM (titrated, usually from 57.1 µM), for inactives: top-dose activity change, negative = inhibition, usual class: inhibitors | 73,000 compounds, 3.4% hits | AID 886; also: potency is read from the fitted curve at half-maximal effect; % is scaled to controls: 0 for no effect and ±100 for the full control effect; nearly all actives have a fitted effect of over 60% in size; many of its hits are not listed in these tables
# Target sequence (Q99714 whole entry, looked up, one chain of several): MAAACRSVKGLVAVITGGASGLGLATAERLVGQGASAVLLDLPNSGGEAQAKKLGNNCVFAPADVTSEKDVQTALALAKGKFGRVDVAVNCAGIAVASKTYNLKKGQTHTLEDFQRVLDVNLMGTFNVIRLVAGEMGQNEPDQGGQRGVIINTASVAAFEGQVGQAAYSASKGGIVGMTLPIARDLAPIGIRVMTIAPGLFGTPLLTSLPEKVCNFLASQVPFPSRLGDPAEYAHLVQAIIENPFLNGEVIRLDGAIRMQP
#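 Read-out: 360 nm excitation, 450 nm emission, kinetic over 4 min. Conditions: His-tagged human HADH2 20 nM, pH 9.0 Tris with Tween-20, 1 mM NAD+, 90 uM beta-hydroxybutyryl-CoA.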
# * marks the source's active call; other numbers are inactive results; i = inactive; ? = inconclusive; nt = not tested or not shown; [ ] = remark or other dose. Unless noted, calls follow the shape of the dose curve; as a rule, active = well fitted curve in the direction sought with a large enough effect; inconclusive = small, poorly fitted or top-dose-only effect, or another doubt; inactive = no such curve, though single readings can be large; an effect the other way counts as inactive or inconclusive.
SMILES,USP2a inhib,BRCT inh red,BRCT PPI green,15-hLO inh,HEK293 cAMP cs,Tau filament bind,Rhodamine autofl,DNA Pol III inh,HADH2 inhib
COCCn1c(=O)c(-c2cccc(C#N)c2)nc2cnc(Nc3ccccc3)nc21,215.8%[activator],0.1%,-5.4%,-18.3%,0.251µM*,209.6%,i,-3.9%,-4.3%
CCOC(=O)Cn1c(CN2CCN(c3cccc(Cl)c3)CC2)nc2c1c(=O)[nH]c(=O)n2C,nt,-0.9%,?,?,20µM*,-5.1%,nt,-2.6%,?
CN1c2ccccc2-c2nc3ccccc3n2C1c1ccccn1 (stereo not drawn),nt,-1.1%,-2.1%,-0.4%,?,nt,nt,nt,15.8µM*
CC(C)c1cccc2nc3c(c(C(C)(C)C)c12)Cn1c-3cccc1=O,nt,-0.3%,0.5%,nt,?,?,nt,1.0%,-14.5%
O=C(NCc1ccco1)c1ccc2nc3sc4c(c3c(=O)n2c1)CCCC4,16.4%,-0.8%,-1.2%,31.6µM*,1.2%,-9.9%,i,-9.9%,?
Cn1cc(-c2nc3cncnc3n(-c3ccccc3)c2=O)c2ccccc21,213.9%[activator],2.1%,3.6%,-8.2%,?,130.8%,i,9.1%,8.7%
CCn1nc(NC(=O)c2ccco2)c2cc3ccc(C)cc3nc21,21.3%,1.0%,-0.8%,-26.3%,1.1%,25.7%,i,-12.7%,24.1%
CN(C)c1ccc(NC(=O)c2cc3c(=O)n4ccccc4nc3n2C)cc1,34.0%[activator],-1.0%,1.3%,-17.6%,-20.3%,-83.8%,i,-8.9%,6.5%
O=C1Nc2ccc(S(=O)(=O)NCc3ccccn3)c3cccc1c23,3.2%,-0.5%,-1.7%,-5.3%,1.6%,6.4%,i,?,?
COCCNC(=O)c1c(N)n(-c2cccc(C)c2)c2nc3ccccc3nc12,33.0%[activator],-0.1%,-0.7%,-19.1%,3.6%,20.4%,i,1.2%,31.6µM*
CCN1c2ccccc2-c2nc3ccccc3n2C1c1ccccn1 (stereo not drawn),16.2%,-1.6%,0.0%,-8.8%,15.8µM*,24.8%,i,-7.9%,20µM*
O=c1oc2c(CN3CCOCC3)c(O)ccc2c2c1CCC2,0.0%,0.1%,-1.6%,6.9%,8.8%,-0.1%,i,4.0%,132.0%[activator]
Cc1cc(=O)oc(C)c1C(=O)Nc1cnc2ccccc2c1,6.7%,-0.1%,1.5%,-0.6%,3.6%,287.6%,i,2.3%,1.8%
COc1ccc(Oc2ncc3nc(-c4ccc(Cl)cc4)c(=O)n(C4CC4)c3n2)cc1,148.9%[activator],0.1%,-0.7%,-18.5%,-0.6%,4.8%,i,8.5%,-11.3%
O=C(NCc1ccco1)c1nc2nc(-c3cccs3)cc(C(F)(F)F)n2n1,nt,1.0%,-0.2%,-13.6%,-5.6%,25.1µM*,i,-13.0%,25.1µM*
N=c1oc2ccc3ccccc3c2cc1-c1nnc2n1CCCCC2,3.8%,0.3%,0.8%,7.7%,1.1%,-0.6%,i,-11.7%,25.1µM*
CCn1c(Cc2ccc(OC)cc2)nnc1SCC(=O)Nc1cccc(C(=O)OC)c1,39.4%[activator],-1.3%,0.4%,?,27.8%,-8.6%,i,-5.8%,25.1µM*
CCCCNC(=O)c1cc2c(=O)n3cccc(C)c3nc2n(CCN2CCOCC2)c1=N,7.8%,-0.8%,-3.0%,3.8%,-1.3%,?,i,-10.6%,-6.3%
CCOc1ccc(CC(=O)N2CCN(c3ccc(N4CCOCC4)nn3)CC2)cc1OCC,nt,0.5%,-1.1%,2.4%,-0.7%,5.3%,nt,-5.8%,25.1µM*
Cc1cc(C)c2cc(C#N)c(NCCCNC(=O)CCC(=O)O)nc2c1,?,-0.6%,3.7%,-0.8%,0.0%,2.8%,i,1.4%,31.6µM*
COc1ccc(-c2nc3cnc(N4CCOCC4)nc3n(Cc3cccs3)c2=O)cc1,104.4%[activator],0.0%,-1.3%,-5.8%,8.8%,86.2%,i,-2.6%,0.1%
Cc1cccc2cc(C#N)c(NCCNS(=O)(=O)c3ccc4c(c3)OCCO4)nc12,131.1%[activator],-1.6%,0.7%,?,7.4%,8.9%,i,-3.1%,27.1%
O=C(c1cc2nc(-c3ccccc3)cc(-c3ccccc3)n2n1)N1CCN(C(=O)c2ccco2)CC1,63.9%[activator],0.8%,1.6%,-14.7%,?,68.2%,i,0.8%,?
O=C(COc1ccccc1)Nc1cccc2nsnc12,4.9%,-0.5%,-1.0%,-7.9%,?,?,i,0.2%,-5.6%
O=c1c(O)c(-c2ccc(O)cc2O)oc2cc(O)cc(O)c12,12.8%,-3.0%,4.5%,?,-10.3%,-7.5%,i,-19.8%,10µM*
CCNc1ncc2nc(-c3ccc(OC)cc3)c(=O)n(CCc3ccccc3)c2n1,108.1%[activator],-0.1%,0.0%,-8.7%,?,46.7%,i,-1.3%,10.9%
O=C(O)c1cccn2c(=O)c3ccccc3nc12,-27.5%,1.3%,-3.4%,-9.2%,5.2%,4.0%,i,?,-8.1%
COCCn1c(=O)c(-c2ccc(OC)cc2)nc2cnc(OCc3ccccc3)nc21,55.5%[activator],-0.5%,-2.1%,7.1%,8.7%,11.9%,i,-7.7%,-6.2%
Oc1c(/C=N/c2ncn[nH]2)ccc2ccccc12,5.1%,1.0%,5.5%,0.5%,5.5%,12.6µM*,nt,2.2%,-12.3%
COc1ccc(-n2c(N)c(C(=O)NCC3CCCO3)c3nc4ccccc4nc32)c(OC)c1 (stereo not drawn),40.2%[activator],-2.8%,0.0%,?,7.1%,25.1µM*,i,-5.0%,?
CCOc1ccc(C2C(C#N)=C(N)N3C(=C2C#N)Sc2ccccc23)cc1 (stereo not drawn),32.3%[activator],1.2%,7.0%,?,5.0%,i,nt,3.0%,?
Cc1ccc2[nH]c3c(c2c1)CN(C(=O)CN1CCN(c2ccccc2)CC1)CC3,20.8%,-1.6%,-1.5%,-15.6%,12.7%,431.9%,i,-8.1%,17.9%
O=C(c1ccco1)N1CCN(c2c(-c3ccccc3)c3cc(Cl)ccc3[nH]c2=O)CC1,41.4%[activator],-0.9%,-4.1%,?,?,347.8%,i,-10.6%,?
CCCOc1ccc(C2C(C(=O)OC)=CN(CCOC)C=C2C(=O)OC)cc1,4.1%,-1.2%,0.3%,1.5%,25.1µM*,19.2%,nt,-1.7%,?
O=c1cc(-c2ccccc2)c2ccc(O)c(CN3CCCCC3)c2o1,-1.7%,-1.0%,1.2%,-5.4%,16.4%,1.8%,i,-2.9%,-2.3%
O=c1c(-c2ccc(F)cc2)nc2cnc(N3CCNCC3)nc2n1Cc1cccs1,172.6%[activator],1.9%,7.5%,0.4%,-11.5%,81.0%,i,-6.4%,11.0%
COC(=O)c1cc2c(=O)n3ccccc3nc2n(C)c1=N,-6.2%,1.9%,-1.2%,-21.4%,-1.3%,9.8%,i,-13.5%,20µM*
Cc1ccc(N2C(=O)[C@@H]3[C@H](C2=O)C2c4ccccc4C=CN2[C@@H]3C(=O)c2ccco2)cc1 (stereo partly drawn),36.9%[activator],0.0%,-3.1%,-2.6%,-12.6%,90.6%,i,-3.7%,8.3%
N#CCCn1c(=O)c(-c2ccc(Cl)cc2)nc2cnc(N3CCOCC3)nc21,1.1%,-2.9%,-2.7%,-6.6%,-9.2%,35.4%,i,-3.4%,1.9%
CCCN1C2=C(C(=O)CCC2)C(c2ccc(O)c(Br)c2)C2=C1CCCC2=O,31.1%[activator],-2.9%,-4.3%,?,?,26.6%,i,-2.5%,15.8µM*
CCNc1ncc2nc(-c3cccs3)c(=O)n(-c3ccc(OC)cc3)c2n1,39.6%[activator],-1.3%,78.3%[activator],14.4%,-8.4%,nt,i,16.5%,9.9%
Cc1nc2cnc(N(C)C)nc2n(C)c1=O,-2.7%,-3.2%,0.0%,0.4%,?,53.2%,i,-11.4%,-2.7%
Oc1ccc(C=Nc2cccc3ncccc23)c(O)c1,22.3%,-13.0%,-25.5%,?,4.7%,64.0%,i,-20.2%,?
CCCCn1c(SCC(=O)NCC2CCCO2)nc2ccc(N3CCOCC3)cc2c1=O (stereo not drawn),30.2%[activator],-3.1%,-2.1%,12.6µM*,2.7%,15.8µM*,i,-2.1%,10µM*
Cn1c(=O)c(-c2ccccc2)nc2cnc(Oc3ccccc3)nc21,68.1%[activator],-3.1%,-8.0%,2.5%,-3.5%,?,i,-3.4%,-28.1%
COc1ccc(-c2nc3cnc(Oc4ccccc4)nc3n(CCC#N)c2=O)cc1,62.1%[activator],0.8%,1.5%,-6.0%,13.0%,0.2%,i,-4.4%,2.3%
CNc1ccccc1C(=O)N1CCc2c([nH]c3ccccc23)C1=O,7.0%,3.1%,-0.6%,7.8%,nt,nt,nt,nt,nt
COc1ccc(-n2c(=O)c(-c3cccs3)nc3cnc(N4CCN(C)CC4)nc32)cc1,71.3%[activator],1.6%,3.0%,-14.1%,-21.0%,i,i,-1.9%,6.8%

# Compound activity as filed in PubChem BioAssay.

# These rows are one share of the data, so the mix of outcomes need not match the whole.
